# Assay outcomes: PubChem, several laboratories
# RecA splice inh = Mtb RecA intein splicing inhibition | 0.75% of 290,000 active | AID 2221 | inhibition, %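 (about 9 µM by stock and volumes)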 | cell-free RecA intein splicing, fluorescence; in the data active = inhibition above about 30%; inconclusive = no clear call, values can overlap the other calls;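 note: 0% = vehicle wells and 100% = reference inhibitor control wells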
# Target sequence (P9WHJ3 whole entry, looked up, canonical isoform): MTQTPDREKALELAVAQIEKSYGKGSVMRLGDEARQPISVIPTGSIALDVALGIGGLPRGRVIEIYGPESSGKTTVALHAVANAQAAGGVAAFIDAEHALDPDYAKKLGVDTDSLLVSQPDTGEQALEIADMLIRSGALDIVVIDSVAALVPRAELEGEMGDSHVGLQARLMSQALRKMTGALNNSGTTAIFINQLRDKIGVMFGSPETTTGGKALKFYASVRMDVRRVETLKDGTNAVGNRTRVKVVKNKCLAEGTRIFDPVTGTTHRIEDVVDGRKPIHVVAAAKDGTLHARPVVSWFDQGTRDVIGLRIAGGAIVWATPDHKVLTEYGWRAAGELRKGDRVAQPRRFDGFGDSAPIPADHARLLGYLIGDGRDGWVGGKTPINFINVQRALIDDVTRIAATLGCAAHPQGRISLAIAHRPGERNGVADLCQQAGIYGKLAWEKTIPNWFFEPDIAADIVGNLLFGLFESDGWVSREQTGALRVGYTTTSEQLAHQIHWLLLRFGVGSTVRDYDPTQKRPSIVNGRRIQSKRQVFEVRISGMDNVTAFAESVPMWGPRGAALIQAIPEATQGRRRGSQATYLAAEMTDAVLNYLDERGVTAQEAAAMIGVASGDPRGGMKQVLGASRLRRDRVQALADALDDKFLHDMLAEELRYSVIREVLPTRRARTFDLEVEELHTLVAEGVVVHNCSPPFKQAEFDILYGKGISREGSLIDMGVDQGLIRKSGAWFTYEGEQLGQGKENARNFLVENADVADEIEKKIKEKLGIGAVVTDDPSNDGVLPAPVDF
# Mtb betalactam = beta-lactam sensitization of Mtb H37Rv; inhibition, % at 25 µM; 0.27% of 330,000 active; M. tuberculosis H37Rv growth with meropenem, percent inhibition; hits of this screen are not shown here;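 active = about 74% or more and at least 40 points above the plate without the antibiotic, then above 30% in a dose series; inconclusive = first-round hits that could not be retested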;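 note: growth measured after seven days incubation then overnight dye step; 0% = bacteria only wells and 100% = bacteria with antibiotic; twin plates without the antibiotic show which effects depend on it; some results filed as inactive read as strong as hits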
# Mtb H37Rv = M. tuberculosis H37Rv growth inhibitors, H37Rv strain (AID 1626); M. tuberculosis H37Rv growth inhibition; higher % means a stronger effect; one-dose inhibition, % at 10 µM; IC50 in µM for titrated hits; 0.95% of 220,000 active;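 active = confirmed in a dose series; inconclusive = inhibition above 80% but not taken into the dose series; inactive = below 80% or under 30% at every dose of the series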;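 note: bacteria incubated seven days before Alamar blue readout; 0% = bacteria only wells and 100% = bacteria with antibiotic wells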
# Arbovirus anti = arbovirus infection inhibition; arbovirus infection cell-based antiviral screen; inhibition, % at 10 µM; 0.37% of 200,000 active; AID 1251;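 active = inhibition from about 30%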;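 note: bluetongue infection of BSR cells; cell survival read as ATP light after 72 h; 0% = infected wells without compound and 100% = uninfected wells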
# YopH PTP inh = blocks Yersinia enterocolitica YopH tyrosine phosphatase. AID 898. fluorescence Ex485/Em525. 0.16% of 140,000 active. inhibition, %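 (about 10 µM by stock and volumes)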;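 active = inhibition of 50% or more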;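 note: controls were vehicle for no effect and minimum signal wells for full effect; inactives centre near -20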
# Arbovirus anti repeat = further read-out of Arbovirus anti, marked with its call; inhibition, %; measured here: 10K subset replicate screen; many hits read low in the repeat;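 first of two repeat runs on a subset; 0% = infected and 100% = uninfected wells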
# Active calls of the source: *; ? = inconclusive; nt = not tested or not shown; & = joins results of further samples. Not all compounds are listed, so the mix of outcomes need not match the whole.
SMILES,RecA splice inh,Mtb betalactam,Mtb H37Rv,Arbovirus anti,YopH PTP inh,others
CCOC(=O)Cc1csc(NC(=O)CCCCCN2C(=O)c3ccccc3C2=O)n1,1.0,4,-8%,11,16,
O=C(O)COCC(=O)N1CCCN(c2ccc(C(F)(F)F)cn2)CC1,-0.4,3,nt,nt,nt,
O=C(Nc1ccc(Cl)cc1Cl)c1ccc2ncsc2c1,-0.3,5,nt,nt,nt,
COC(=O)c1cc([N+](=O)[O-])c(-n2ccnc2)c([N+](=O)[O-])c1,71*,9,-2%,7,-14,
CCN1C(=O)[C@H]2[C@@H](c3ccc(-c4ccc(OC)cc4)c(OC)c3)N[C@@](C)(C(=O)OC)[C@H]2C1=O,-0.9,-4,nt,nt,nt,
CCOc1ccc(CNCc2ccccc2Cl)cc1,4.4,1,-5%,6,nt,
COc1ccccc1-c1sc2ccccc2c1-c1ccc(C(C)=O)cc1,22,18,nt,nt,nt,
CCCCCNC(=O)c1ccc2c(=O)n(CCCOCC)c(=S)[nH]c2c1,-0.9,4,5%,-2,nt,
CN1CCN(S(=O)(=O)c2cccc(S(=O)(=O)c3ccc(Cl)cc3)c2)CC1,-0.6,-5,-9%,26,-9,
O=S(=O)(NC1CCCCC1)c1ccc(N2CCOCC2)nc1,-1.1,-8,2%,nt,nt,
CCCCCc1ccc(S(=O)(=O)Nc2cc(C)ccn2)cc1,nt,-1,-8%,nt,nt,
COc1cc(C2/C(=C(\O)c3ccc4c(c3)CC(C)O4)C(=O)C(=O)N2c2nnc(C)s2)cc(OC)c1OC (stereo not given),-1.1,-2,nt,nt,nt,
CC(=O)c1cccc(CN2CCC(n3nccc3NC(=O)CCOc3ccccc3)CC2)c1,1.3,-4,nt,nt,nt,
O=C(Cn1c(COc2ccccc2)nc2ccccc21)Nc1cccc(Cl)c1,4.8,8,1%,-15,-37,
CC(C)Cc1nc(N2CCN(C(=O)c3ccco3)CC2)c(C#N)c2c1CCC2,21,73,6%,-10,-13,
Cc1ccccc1Nc1nc(N)nc(COC(=O)/C=C/c2ccco2)n1,nt,3,3%,15,nt,
CCCCn1c(N)c(N(CCOC)C(=O)COC(=O)CCOc2ccccc2)c(=O)[nH]c1=O,-2.1,2,nt,nt,nt,
O=C(O)c1ccccc1NC(=O)C(Cc1ccccc1)N1C(=O)c2ccccc2C1=O (stereo not given),1.4,7,nt,nt,nt,
O=[N+]([O-])c1ccc(CN2CCOCCOCCOCC2)cc1,2.7,-6,11%,5,-38,
CN1CCN(C(=O)C2=C[C@@H](c3ccc4c(c3)OCO4)C[C@@H](OCc3ccc(CO)cc3)O2)CC1,-0.5,-12,8%,-1,nt,
COc1ccc(COCC(O)CN2CCC(C(N)=O)CC2)cc1 (stereo not given),0.7,-9,-8%,nt,nt,
CCCOC(=O)c1ccc(Oc2c(-c3ccc(O)cc3O)n[nH]c2C)cc1,19,0,-1%,-33,-47,
Cc1ccccc1NC(=O)NNC(=O)c1ccc2ccccc2c1,2.3,1,nt,nt,nt,
O=C(NC1CCCCC1)NC1(C(=O)N2CCN3CCCC3C2)CCCCC1 (stereo not given),-3.5,-6,5%,8,8,
O=C1NN(c2ccccc2)C(=O)/C1=C\c1ccccc1OCC(=O)N1CCOCC1,-4.4,1,-2%,-39,-13,
Oc1ccc(N2CCN(C(c3ccccn3)c3nnnn3C3CCCC3)CC2)cc1 (stereo not given),1.2,1,-14%,-18,-10,
CC(=O)C(C(C)=O)c1c(Cl)c(O)c(O)c2c(C(=O)c3ccccc3)coc12,0.2,7,-9%,-43,-60,
CCN1CCN(Cc2ccc(NC(=O)c3ccc(C)c(NC(=O)c4ccnnc4)c3)cc2C(F)(F)F)CC1,2.8,-3,-3%,nt,nt,
CC12C(=O)N(Cc3ccco3)C(=O)C1C1c3ccccc3C2c2ccccc21 (stereo not given),-1.5,-7,-8%,2,-33,
Cc1ccc2nc(NC(=O)CSCc3ccccc3)sc2c1,-3.6,3,-2%,0,-19,
CC1CCCN(C(=O)COc2ccc(Nc3ccccc3)cc2)C1 (stereo not given),-0.6,42,6%,-19,nt,
Cn1c(CSCc2ccc(F)cc2)nnc1SCC(=O)Nc1cccc(C(=O)O)c1,-1.0,1,-4%,nt,nt,
O=c1[nH]c(NCCO)nnc1Cc1ccc(Cl)cc1,0.0,1,nt,nt,nt,
Cc1ccccc1NC(=O)CN1C(=O)c2cccnc2Oc2ccc(Cl)cc21,-3.0,?,nt,nt,nt,
COCCN1C(=O)N[C@@H](c2ccccc2)[C@@H](C(=O)OC)[C@H]1C,0.2,-12,-10%,nt,nt,
O=C(c1ccc(Cl)cc1)C1CCN(C(=O)c2ccccc2)CC1,1.0,-4,nt,nt,nt,
CCCCN(C)C(=O)C1CCCN(S(=O)(=O)c2ccc3c(c2)CC(C)N3C(=O)C2CC2)C1 (stereo not given),0.3,2,nt,nt,nt,
Cc1cccc(OCc2nnc(SCC(=O)OC3CCCCC3)o2)c1,1.4,4,1.2µM*,-4,-30,
O=C(CSc1nc2[nH]ncc2c(=O)n1-c1ccccc1)c1ccc2c(c1)OCCO2,2.0,-1,-7%,8,-17,
CC(C)(C)C(=O)NC(NC(=O)C(C)(C)C)c1ccc([N+](=O)[O-])cc1,-1.3,0,-2%,3,-35,
O=C(N/N=C/c1ccc(-c2cccc([N+](=O)[O-])c2)o1)c1ccc([N+](=O)[O-])cc1,0.9,70,1%,-2,nt,
CC(C)(O)C#Cc1ccc(CN2CCN(Cc3ccccc3)C(CCO)C2)s1 (stereo not given),-1.0,-12,3%,-3,nt,
CCn1c(Nc2ccccc2Cl)nc2ccccc21,2.0,1,11%,4,nt,
CCOc1ccc(N(CC(=O)NCCc2ccccc2)C(=O)CCC(=O)Nc2nccs2)cc1,-1.3,2,nt,nt,nt,
O=C(O)c1cc(-c2ccccc2Cl)n(-c2ccccc2)n1,1.9,2,nt,nt,nt,
C=C1CCN([C@@H](C)C(=O)NCCCCCC)S(=O)(=O)c2ccccc21,1.0,-6,-10%,nt,nt,
Cc1ccc(NC(=O)Nc2c(C)n(C)n(-c3ccccc3)c2=O)cc1,-1.0,-6,nt,nt,nt,
O=C(COC(=O)c1ccc(Br)o1)NCC1CCCO1 (stereo not given),0.3,nt,12%,4,-21,
O=C(C1CC(=O)N(c2ccc(F)c(Cl)c2)C1)N1CCC2(CC1)OCCO2 (stereo not given),3.1,0,-5%,10,-35,
O=C(NC(Cc1ccccc1)C(=O)O)c1ccc(S(=O)(=O)N2CCCCC2)cc1 (stereo not given),nt,-2,-5%,0,-16,
Cc1nc(N2CCC(C(N)=O)CC2)c2nnn(Cc3ccccc3)c2n1,-2.7,-7,1%,0,-20,
O=C(Nc1ccc(Oc2ccc(NC(=O)C3CCCO3)cc2)cc1)C1CCCO1 (stereo not given),nt,2,-8%,5,-23,Arbovirus anti repeat=4
O=C(O)CCNS(=O)(=O)c1ccccc1C(F)(F)F,-1.0,-9,-2%,3,nt,
Cc1onc(-c2c(Cl)cccc2Cl)c1C(=O)N1C=CC(C(F)(F)F)=NCC1,-0.6,-6,0%,3,-29,
O=C(NC1CC1)c1ccc(S(=O)(=O)NC2CCCCCC2)cc1,-3.0,-9,0%,4,-40,
O=C(c1ccc2c(c1)OCO2)N1CCC(Cc2ccccc2)CC1,nt,-1,6%,nt,nt,
CCOC(=O)c1c(NC(=O)c2ccc(S(=O)(=O)N(C)CC3CCCO3)cc2)sc2c1CCN(C)C2 (stereo not given),-1.2,30,nt,nt,nt,
Nc1nnc(SCC(=O)Nc2ccc(Cl)c(C(=O)O)c2)s1,-2.7,0,-14%,0,nt,
O=C(CSc1nnc(CNc2cccc(C(F)(F)F)c2)n1Cc1ccco1)NCc1ccco1,-2.9,-7,-16%,13,16,
CCOc1c(Cl)cc(C(=O)Nc2ccccc2C(=O)O)cc1Cl,5.5,4,3%,43*,-24,

# Reprinted from the part before: 4 compounds, then new ones.
SMILES,RecA splice inh,Mtb betalactam,Mtb H37Rv,Arbovirus anti,YopH PTP inh,others
CCOC(=O)c1c(NC(=O)c2ccc(S(=O)(=O)N(C)CC3CCCO3)cc2)sc2c1CCN(C)C2 (stereo not given),-1.2,30,nt,nt,nt,
Nc1nnc(SCC(=O)Nc2ccc(Cl)c(C(=O)O)c2)s1,-2.7,0,-14%,0,nt,
O=C(CSc1nnc(CNc2cccc(C(F)(F)F)c2)n1Cc1ccco1)NCc1ccco1,-2.9,-7,-16%,13,16,
CCOc1c(Cl)cc(C(=O)Nc2ccccc2C(=O)O)cc1Cl,5.5,4,3%,43*,-24,
O=C(NCc1ccc(-c2csnn2)cc1)C1CC1,-0.2,-7,-2%,nt,nt,
CCOc1ccc(NC(=O)CSc2ccc(-c3cccnc3)nn2)cc1,1.7,74,nt,nt,nt,
Cc1cccc(N=c2c([N+](=O)[O-])nn(-c3ccc(Cl)cc3)n2O)c1,4.6,50,37%,-7,nt,
CCOC(=O)CCNCc1ccc(OC)c(OC)c1,-8.1,-14,1%,nt,nt,
COc1ccc(S(=O)(=O)N2CCN(C(=O)N3CCOCC3)C2C)cc1 (stereo not given),-0.2,2,nt,nt,nt,
COc1ccc(NC(=O)COC(=O)CNS(=O)(=O)c2ccc(F)c(F)c2F)cc1OC,6.3,-1,0%,-9,-12,
CCOc1ccc(S(=O)(=O)N2CCCC(C(=O)NCc3ccncc3)C2)cc1Cl (stereo not given),1.0,-7,nt,nt,nt,
CCOC(=O)C1(Cc2ccc(Cl)cc2)CCN(Cc2cnc(N)nc2)CC1,0.7,-9,3%,-12,nt,
O=C(Cn1c(=O)oc2cc(S(=O)(=O)N3CCCC3)ccc21)N1CCN(c2ccccc2)CC1,0.8,-3,-2%,-2,-42,
O=C(O)C1CC=CCC1C(=O)Nc1ccccc1C(=O)N1CCN(c2ccccc2)CC1 (stereo not given),-2.8,-2,-4%,6,7,
CCOc1ccc(NS(=O)(=O)c2cc(C(=O)NCC3CCCO3)ccc2Cl)cc1 (stereo not given),-0.2,-1,nt,nt,nt,
COc1ccc(CNC(=O)C2CCCN2C(=O)NCc2ccccc2)cc1 (stereo not given),-0.4,-5,nt,nt,nt,
O=C(COc1ccccc1)Nc1nccs1,-0.1,-1,0%,-2,36,
CCOC(=O)c1c(C)n(CC(O)CN2CCOCC2)c2cc(Br)c(OC)cc12 (stereo not given),-1.1,25,7%,-7,nt,
Cc1cc2c(cc1S(=O)(=O)N1CCCC1)n(C)c(=O)c(=O)n2C,-3.1,?,nt,nt,nt,
N#Cc1nnn(-c2ccc(Cl)cc2)c1N,1.4,-2,-15%&-3%,-1,nt,
C=CCc1cc(Cl)ccc1OCCCn1ccnc1,6.5,91,nt,nt,nt,
Cc1noc(C)c1COc1ccc(C(=O)OCC(=O)N2CC3(C)CC2CC(C)(C)C3)cc1 (stereo not given),nt,97,6%,3,-51,
CCN(CC)c1ccc2cc(C(=O)NCc3ccc(F)cc3)c(=N)oc2c1,-409,98,nt,nt,nt,
O=C(NCc1ccco1)C(c1ccc(F)cc1)N(C(=O)Cc1cccs1)c1cccnc1 (stereo not given),1.1,-1,1%,-2,nt,
Cc1ccc(CN2CCN(/N=C/c3cccnc3)CC2)cc1,-0.2,-10,-3%,1,-18,
CCn1c(CSc2nc(C)cc(C)n2)nnc1SCC(N)=O,-6.4,-9,-10%,0,nt,
COc1cc2c(cc1OC)C(C)N(C(=O)/C=C/c1cc(OC)c(OC)c(OC)c1)CC2 (stereo not given),0.6,-3,nt,nt,nt,
CC(=O)CC(=O)NC(=NC1CCCCC1)Nc1nc(C)cc(C)n1,-2.4,70,1%,8,-15,
O=C(CNC(=O)c1cccc(F)c1)OCC(=O)N1CCCc2ccccc21,0.1,2,-3%,7,-27,
Cc1onc(-c2ccccc2)c1C(=O)OCC(=O)NC(=O)c1ccccc1,0.1,4,nt,nt,nt,
Cc1ccc(/C=N/NC(=O)C2(O)c3ccccc3-c3ccccc32)o1,-0.2,-3,1%,4,-26,
Cc1cc(NC(=O)c2cc(-c3ccccn3)nc3c(Cl)cccc23)no1,5.3,1,nt,nt,nt,
Cn1c(SCC(=O)NC2CCCC2)nc2c(c1=O)SCC2,2.8,2,nt,nt,nt,
O=C(c1ccc2c(=O)n3c(nc2c1)CCCCC3)N1CCN(c2ccc(Cl)cc2)CC1,5.3,0,nt,nt,nt,
Cc1ccc(N2C(=O)NC(=O)/C(=C\c3ccc(N4CCOCC4)cc3)C2=O)cc1,-1.4,-2,-2%,1,-20,
Cc1ccc(C)c2[nH]c(=O)c(CN(Cc3cccs3)C(=S)NCc3ccco3)cc12,11,8,12%,15,-20,
Cc1ccc(C(=O)NC2CCS(=O)(=O)C2)cc1S(=O)(=O)N1CCOCC1 (stereo not given),0.4,1,-6%,6,-8,
